Bioassay records deposited in PubChem by National Center for Advancing Translational Sciences (NCATS).
SARS PLpro yeast: SARS-CoV PLP inhibition in yeast; S. cerevisiae expressing SARS-CoV PLpro, growth rescue; control for the full effect not named in the record; Potency, µM (doses to about 32.9 µM), inactives show top-dose activity, positive = growth rescue; 330,000 compounds, 0.19% hits; AID 485353; further: 0% is about no effect; nearly all actives have a fitted effect of over 55% in size; growth read by luminescence after 48 h
NS1 inh: blocks influenza NS1 protein function. S. cerevisiae slowed by influenza A NS1, growth recovery by OD600. Potency, µM (titrated, usually from 46.1 µM), for inactives: at the highest dose activity, positive = more growth. 270,000 compounds, 0.4% hits; further: actives are rising curves; nearly all actives have a fitted effect of over 50% in size
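In this qHTS, NS1 from influenza A is expressed in budding yeast, where it slows growth. Cells are switched from glucose to 2% galactose medium (pH 6.0, -URA), treated with compound, and growth recovery is read at OD600.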
Lassa entry inh: inhibitors of Lassa virus binding or cell entry; 300,000 compounds, 1.2% hits; Lassa virus pseudotype entry inhibition, cell reporter; control for the full effect not named in the record; Potency, µM (top dose mostly 37.9 µM), for inactives: at the top dose activity change, negative = inhibition, hits mostly inhibitors; AID 540256; active means well fitted inhibition curve with a large enough effect; inconclusive means small, poorly fitted or top-dose-only effect, or effect the other way; inactive means flat fitted curve, though single readings scatter; tested in HEK293 cells; further: on the % scale 0 is the no-effect control and ±100 the full control effect; nearly all actives have a fitted effect of over 50% in size; luciferase read-out
RE007 growth inh: less growth of the S. pombe RE007 Vpr strain | S. pombe RE007 Vpr strain, BacTiter-Glo ATP luminescence, 24 h; control for the full effect not named in the record | Potency, µM (series often up to 92.2 µM), without a hit: top-dose activity change, negative = less growth | 360,000 compounds, 0.21% hits | AID 651644; active = well fitted falling curve with a large enough effect; inconclusive = small, poorly fitted or top-dose-only effect; inactive = no such curve, though single readings can be large or run the other way;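 further: on the % scale 0 is the no-effect control and ±100 the full control effect; nearly all actives have a fitted effect of over 50% in size; the assay follows cell death caused by Vpr and the record does not say whether a fall means rescue or toxicity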
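Fission yeast RE007 carrying one integrated HIV-1 vpr copy, seeded at OD 0.01 in PMG+AL medium with 23 nL pinned compound. Grown 24 h at 30 degrees; viability read by BacTiter-Glo luminescence after 5 min.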
Cruzain inh Det: inhibitors of Trypanosoma cruzi cruzain with detergent. purified cruzain, Z-FR-AMC fluorescence, 0.01% Triton. Potency, µM, for the others: max response, negative = inhibition, usual class: inhibitors. 200,000 compounds, 0.43% hits; active means well fitted curve in the direction sought with a large enough effect; inconclusive means small, poorly fitted or top-dose-only effect, or another doubt; inactive means no such curve, though single readings can be large; an effect the other way counts as inactive or inconclusive;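 further: plate controls were neutral wells for no effect and buffer without enzyme for full effect; nearly all actives have a fitted effect of over 40% in size; top concentration of the series not given in the record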
Target sequence (P25779 123-467 limits assumed): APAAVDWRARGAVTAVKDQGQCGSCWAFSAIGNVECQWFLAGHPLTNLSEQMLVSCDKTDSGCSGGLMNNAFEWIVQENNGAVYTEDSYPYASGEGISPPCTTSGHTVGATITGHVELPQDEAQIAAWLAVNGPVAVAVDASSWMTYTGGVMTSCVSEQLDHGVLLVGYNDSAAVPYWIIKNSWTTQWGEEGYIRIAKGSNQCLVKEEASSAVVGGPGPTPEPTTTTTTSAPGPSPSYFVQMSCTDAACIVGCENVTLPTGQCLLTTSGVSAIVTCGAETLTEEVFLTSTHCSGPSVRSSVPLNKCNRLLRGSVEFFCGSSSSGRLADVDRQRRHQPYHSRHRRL
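Read-out: AMC fluorescence (360 nm excitation, 450 nm emission), four reads over 2 min, first-to-third difference used. Conditions: cruzain 1.5 nM, Z-FR-AMC 2 uM, pH 5.5 acetate, 5 mM DTT, 0.01% Triton X-100.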
StopGo reporter: FMDV 2A StopGo reporter, luciferase signal. human cells with a luciferase reporter of 2A StopGo recoding; control for the full effect not named in the record. Potency, µM (titrated, usually from 57.9 µM), inactives show at the highest dose signal change, negative = less light. 410,000 compounds, 1.2% hits; active = well fitted falling curve with a large enough effect; inconclusive = small, poorly fitted or top-dose-only effect; inactive = no such curve, though single readings can be large or run the other way; tested in HEK293T cells; further: on the % scale 0 is the no-effect control and ±100 the full control effect; nearly all actives have a fitted effect of over 45% in size; luciferase light after 4 h
Marburg entry inh: blocks Marburg virus binding to or entry into cells; Marburg virus pseudotyped entry inhibition, cell reporter; control for the full effect not named in the record; about a third of the inactives were read at about 46 µM; Potency, µM (doses to about 37.8 µM), inactives show at the top dose activity change, negative = inhibition, most hits filed as inhibitors; 300,000 compounds, 1.8% hits; active = well fitted inhibition curve with a large enough effect; inconclusive = small, poorly fitted or top-dose-only effect, or effect the other way; inactive = flat fitted curve, though single readings scatter; tested in HEK293 cells; about a fifth of its hits are not listed in these tables; further: on the % scale 0 is the no-effect control and ±100 the full control effect; luciferase read-out
Cruzain inh noDet: inhibitors of Trypanosoma cruzi cruzain without detergent. P25779. purified cruzain, Z-FR-AMC fluorescence, no detergent. Potency, µM, inactives show max response, negative = inhibition, usual class: inhibitors. 200,000 compounds, 2.3% hits. AID 1476; active means well fitted curve in the direction sought with a large enough effect; inconclusive means small, poorly fitted or top-dose-only effect, or another doubt; inactive means no such curve, though single readings can be large; an effect the other way counts as inactive or inconclusive;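 further: plate controls were enzyme without inhibitor for no effect and buffer without enzyme for full effect; nearly all actives have a fitted effect of over 40% in size; top concentration of the series not given in the record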
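Detergent-free condition (0.00005% Triton X-100) in acetate buffer pH 5.5 with DTT. 1.5 nM enzyme and compound were pre-mixed 15 min, then 2 uM Z-FR-AMC substrate added; reaction progress from fluorescence change between first and third reads (60 s).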
* = called active by the depositor; ? = inconclusive; nt = not tested or not shown; & = joins results of further samples; [ ] = dose if it differs, or a comment. Unless noted, the call rests on the fitted dose curve; in most records, active means well fitted rising curve with a large enough effect; inconclusive means small, poorly fitted or top-dose-only effect; inactive means no such curve, though single readings can be large or run the other way. Potency means the concentration at half of the fitted maximal effect.

Every second line gives: SARS PLpro yeast | NS1 inh | Lassa entry inh | RE007 growth inh | Cruzain inh Det | StopGo reporter | Marburg entry inh | Cruzain inh noDet
1. CCOc1cccc(-c2c(C(=O)N/N=C/c3cccnc3)nnn2-c2nonc2N)c1
    2% | 1% | 28%[46.1 µM] | -1% | nt | -10% | 1%[46.1 µM] | nt
2. Cc1cc(NC(=O)COc2ncnc3sc(C)c(C)c23)no1
    -4% | 0% | -1% | -3% | 4.2% | -8% | 1% | 0%
3. O=c1cc(-c2ccc(F)cc2)nc(SCc2nc(-c3ccccc3Cl)no2)[nH]1
    nt | nt | 18%[46.1 µM] | nt | 4.5% | -4% | nt | 2%
4. O=C(O)CCCC(=O)OCCCCc1cccs1
    1% | -66% | 8% | -11% | -2.4% | 6% | 2% | -6%
5. CS(=O)(=O)N(Cc1ccco1)Cc1ccccc1Cl
    1% | 7% | 1% | -6% | -3.2% | -14% | -2% | -5%
6. O=C(Nc1nc2ccccc2n1CCN1CCCCC1)c1ccc(Cl)cc1
    0% | 4% | nt | nt | -1.6% | nt | 3% | -3%
7. CC(C)(C)c1ccc(OCC(O)CN2CCN(C(=O)c3ccccc3)CC2)cc1 (stereo not drawn)
    5% | -15% | nt | -2% | nt | -25% | nt | nt
8. CCCOc1ccc(N2C(=O)CC(N3CCN(c4nc5ccccc5s4)CC3)C2=O)cc1 (stereo not drawn)
    -27% | 1% | 5% | ? | 1.6% | -27% | 4% | ?
9. COC(=O)CSc1nnc(-c2ccncc2)n1N
    -5% | 10% | 15% | 4% | 3.7% | 1% | 7% | 5%
10. Cn1c(CCNC(=O)c2ccco2)nc2cc([N+](=O)[O-])ccc21
    0% | -4% | nt | 11% | nt | -24% | nt | nt

Structures from the list above with a furan ring, fused or not (two):
Every second line gives: SARS PLpro yeast | NS1 inh | Lassa entry inh | RE007 growth inh | Cruzain inh Det | StopGo reporter | Marburg entry inh | Cruzain inh noDet
5. CS(=O)(=O)N(Cc1ccco1)Cc1ccccc1Cl
    1% | 7% | 1% | -6% | -3.2% | -14% | -2% | -5%
10. Cn1c(CCNC(=O)c2ccco2)nc2cc([N+](=O)[O-])ccc21
    0% | -4% | nt | 11% | nt | -24% | nt | nt

(continued)
Every second line gives: SARS PLpro yeast | NS1 inh | Lassa entry inh | RE007 growth inh | Cruzain inh Det | StopGo reporter | Marburg entry inh | Cruzain inh noDet
11. Cc1ccc(NC(=S)NCc2ccccc2)cc1S(=O)(=O)N1CCCCC1
    2% | ? | -3% | -6% | nt | 15% | ? | nt
12. CCOC(=O)N1CCN(C(=O)CSc2nnc(CNC(=O)c3c(F)cccc3Cl)o2)CC1
    -5% | 7% | -8% | -11% | -1.1% | 11% | -6%&17% | -7%
13. Cc1ccc(SCCOCCN2CCOCC2)cc1
    -2% | 27% | 23% | -6% | nt | 8% | 7% | nt
14. COC(=O)N1C(=O)[C@](c2ccccc2)(C(C)C)N1C(=O)OC
    -8% | -7% | nt | -6% | nt | -26% | nt | nt
15. Cc1ccc(-c2nnc(Nc3ccc(Br)cc3)c3ccccc23)cc1S(=O)(=O)NCc1nc2ccccc2[nH]1
    nt | nt | ? | nt | -5.9% | 31%[activator] | ? | ?
16. CC(C)(C)OC(=O)N1CCC(c2c(C(=O)N3CCN(Cc4ccccc4)CC3)cnn2-c2ccc(Cl)cc2)CC1
    nt | nt | ? | nt | -3.5% | ? | nt | ?
17. O=C(NCc1ccco1)/C(=C\c1cccc([N+](=O)[O-])c1)NC(=O)c1ccco1
    7% | 5% | 14%[46.1 µM] | 11% | nt | 3% | -23%[46.1 µM] | nt
18. O=C(NCCc1ccc(F)cc1)Nc1ccc([N+](=O)[O-])cc1
    -13% | -92% | 28%[46.1 µM] | 9% | nt | 2% | ? | nt
19. CCOC(=O)C(NCCc1ccccc1)(NC(C)=O)C(F)(F)F (stereo not drawn)
    16% | -12% | -3% | -5% | 1.3% | -21% | 15% | -2%
20. Cc1ccc(S(=O)(=O)Oc2ccccc2/C=N/N=C(N)N)cc1
    0% | 11% | -16% | 3% | nt | -29% | ? | nt
21. COC(=O)CSc1nnc(COc2ccc([N+](=O)[O-])cc2)n1C
    1% | 4% | 33%[46.1 µM] | 17% | nt | -16% | 1%[46.1 µM] | nt
22. COc1ccc(C2C(C#N)=C(N)Oc3cc(C)n(Cc4ccco4)c(=O)c32)cc1 (stereo not drawn)
    10% | 1% | -18% | -19% | -0.7% | -14% | -12% | -11%
23. COc1cccc(NC(=O)c2cnc(SCC(=O)N3CCOCC3)n(C)c2=O)c1
    nt | nt | 8%[46.1 µM] | nt | 2.4% | 22µM* | nt | 12%
24. COc1ccccc1N1CCN(/N=C/c2cccc(O)c2)CC1
    -1% | -34% | nt | -2% | nt | 30%[activator] | nt | nt
25. O=C(CN(C(=O)CNS(=O)(=O)c1ccc(F)cc1)c1ccccc1)NCc1ccco1
    -3% | 0% | 7% | -2% | nt | 9% | 11%[46.1 µM] | nt
26. CCCN(CCC)c1nc(C)cc(C(C#N)c2nc3ccccc3o2)n1 (stereo not drawn)
    2% | -6% | nt | nt | -3.2% | nt | 1% | -9%
27. CC(=O)Nc1sc(N/N=C\c2ccc(O)cc2)nc1-c1cccs1
    1% | 3% | nt | -8% | nt | 17% | nt | nt
28. CC(C)(C)SCCNC(=O)CN1C(=O)c2ccccc2S1(=O)=O
    6% | -4% | -1% | 2% | 0.9% | 69%[activator] | -26% | -6%
29. Cc1ccc(NC(=O)CSc2ccc3c(c2)OCCO3)nc1
    -3% | nt | 16% | -10% | nt | 10% | -23% | nt
30. CCNC(=S)N/N=C/c1cc(Br)cc(Br)c1OC
    1% | -2% | -14% | 4% | -4.3% | -16% | -16% | -1%
31. COc1ccc(CNc2nc3ccccc3c3nc(-c4ccccc4)nn23)cc1
    nt | nt | nt | nt | -2.5% | -11% | -3%[46.1 µM] | 3%
32. COCCN(CCOc1cc(C)cc(C)c1)Cc1ccc(Cl)cc1
    -1% | -7% | -12%[46.1 µM] | -5% | nt | -9% | ? | nt
33. CO/N=C(/CNC(=O)c1cccc(Cl)c1)c1ccc(Cl)cc1
    1% | -34% | -10% | 7% | 2.2% | -21% | ? | 0%
34. CC1(C)Cc2c(cnn2-c2cccc(F)c2)C(NC(=O)CSc2ccccn2)C1 (stereo not drawn)
    -3% | 9% | nt | -9% | nt | -9% | nt | nt
35. COc1ccc(NC(=O)c2cc3c(=O)n(C)c4ccccc4c3n2C)cc1Cl
    -3% | 4% | -4%[46.1 µM] | -2% | nt | ? | 0%[46.1 µM] | nt
36. Cc1ccc(OCC(=O)NC2CCS(=O)(=O)C2)c(C)c1 (stereo not drawn)
    0% | 0% | 22%[46.1 µM] | -4% | nt | 2% | -5%[46.1 µM] | nt
37. CCC1(CC)C(=O)NC(=O)NC1=Nc1cccc(OC)c1
    -6% | 11% | 18% | 8% | 0.9% | 9% | 15%[46.1 µM] | -11%
38. COc1ccc2cc(C(=O)N3CCN(c4ccccc4OC)CC3)[nH]c2c1
    -1% | 2% | nt | 3% | nt | -2% | nt | nt
39. O=C(OCC1O[C@@H](OC(=O)c2cc(O)c(O)c(O)c2)[C@@H](OC(=O)c2cc(O)c(O)c(O)c2)[C@@H](OC(=O)c2cc(O)c(O)c(O)c2)[C@@H]1OC(=O)c1cc(O)c(O)c(O)c1)c1cc(O)c(O)c(O)c1 (stereo partly drawn)
    5.6µM* | 2% | -7% | nt | -15% | nt | ? | -6%
40. COc1ccc(CN(CC(=O)NCc2ccccc2)C(=O)CCC(=O)Nc2nccs2)cc1
    2% | 2% | -29%[46.1 µM] | 1% | nt | -12% | -13%[46.1 µM] | nt
41. CCn1ncc(C2=NOC(C(=O)NCC(C)C)C2)c1C (stereo not drawn)
    -2% | 0% | ? | 18% | 8.1% | 23% | 7% | 2%
42. COc1ccc(OC)c(CNS(=O)(=O)c2ccc3c(c2)CCCN3C(C)=O)c1
    nt | nt | -13%[46.1 µM] | nt | -0.3% | 13% | nt | -7%
43. CCOCCCNC(=O)CN1C(=O)CSc2ccccc21
    11% | 4% | 2% | 3% | 1.4% | -4% | 9% | -8%
44. Cc1cccc(N2CCN(Cc3cn(C)nc3-c3ccccc3F)CC2)n1
    0% | 1% | ? | -8% | nt | -5% | ? | nt
45. O=C(O)c1cccc(COc2ccc3c(c2)CCC3)c1
    -6% | -59% | 0.37µM* | 2% | nt | 2.8µM* | ? | nt
46. O=C(c1ccccc1)N1N=C(c2ccc(F)cc2)CC1(O)C(F)(F)F (stereo not drawn)
    -1% | -8% | nt | -9% | nt | -10% | nt | nt
47. CC(C)N(Cc1nc(-c2ccccc2)no1)C(=O)C1CCCCC1
    11% | -8% | 25% | 14% | -3.0% | -30% | 28% | -1%
48. O=C(Nc1ccccc1)c1ccc(S(=O)(=O)NCc2ccco2)cc1
    2% | 14% | ? | 6% | 2.2% | -10% | ? | -3%
49. N/N=C(\c1ccccc1)c1cc(Br)ccc1N
    -6% | -20% | 2% | -7% | nt | -12% | -24% | nt
50. COc1ccc(-n2nc(C(=O)NCC(=O)NC3CCCCC3)c3ccccc3c2=O)c(OC)c1
    4% | -11% | 13µM* | -21% | nt | 1% | ? | nt
51. CCOc1ccc(/C=C/c2nc(C#N)c(NCc3ccccc3)o2)cc1
    nt | nt | -20%[46.1 µM] | nt | -6.2% | ? | -19%[46.1 µM] | 3%
52. CCCOc1cccc(C2c3c(oc4ccc(F)cc4c3=O)C(=O)N2CCCN2CCOCC2)c1 (stereo not drawn)
    nt | nt | 1%[46.1 µM] | nt | -1.1% | 11% | 13%[46.1 µM] | 10%
53. CC(=O)Nc1ccc(C(=O)NN2C(=O)NC3(CCCCC3)C2=O)cc1
    1% | nt | 3% | 6% | nt | -3% | 9%[46.1 µM] | nt
54. CCCCCn1c(=O)[nH]c2cc(C(=O)NCc3ccc(C)cc3)ccc2c1=O
    nt | nt | 12%[46.1 µM] | nt | 0.4% | -19% | 19%[46.1 µM] | 8%
